UBC13 inh – inhibitors of human UBC13 polyubiquitin chain formation. P61088. TR-FRET. inhibition, % at 20 µM. 330,000 compounds, 0.47% hits. AID 485273; in the data active means inhibition above about 45%, passing the limit was not always enough; inconclusive means no clear call, values can overlap the other calls
Target sequence (P61088 whole entry, looked up): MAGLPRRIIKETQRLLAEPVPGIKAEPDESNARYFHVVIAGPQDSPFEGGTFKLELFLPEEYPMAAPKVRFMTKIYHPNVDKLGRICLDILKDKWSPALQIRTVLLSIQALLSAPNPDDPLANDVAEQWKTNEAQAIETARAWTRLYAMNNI
697 NFkB inh – lowers PMA/ionomycin-induced NF-kB signal in 697 B cells. 697 B-cell NF-kB luciferase reporter, 16 h. inhibition, % at 4 µM. 330,000 compounds, 0.33% hits; in the data active means inhibition above about 35%
Gli-Sufu antag – blocks Gli-Sufu signaling in a luciferase reporter. 340,000 compounds, 0.74% hits. Sufu-KO-LIGHT fibroblasts, Gli luciferase reporter luminescence. inhibition, % at 5 µM;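 active means inhibition above about 55%, limit read from the data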;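 further: 0% = DMSO-treated cells and 100% = wells with medium but no cells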
Apaf1 inhib – blocks human Apaf-1 apoptosome activity; AID 489030; inhibition, % at 20 µM; reconstituted apoptosome caspase-3 activity, DEVD-Rh110 fluorescence; 330,000 compounds, 0.71% hits; O14727; active means inhibition of at least 40% at 20 µM;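 further: plate controls were DMSO wells for no effect and DEVD-CHO caspase inhibitor wells for full effect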
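Material: reconstituted apoptosome with Apaf-1, cytochrome c, caspase-9, procaspase-3, dATP. Technique: Rh110 fluorescence intensity. Buffer or medium: pH 7.5 Hepes buffer with CHAPS, BSA, DTT. Times: 30 min plus 50 min, RT.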
Jurkat NFkB inh – inhibitors of the PMA/ionomycin-induced NF-kB reporter in Jurkat cells; PMA/ionomycin-induced NF-kB luciferase reporter, luminescence; inhibition, % at 4 µM; 330,000 compounds, 0.53% hits; AID 435003; in the data active means inhibition above about 50%
CCR6 antag – blocks CCL20-driven beta-arrestin recruitment at human CCR6. P51684. CHO-K1 CCR6 PathHunter beta-arrestin, luminescence, CCL20-stimulated. inhibition, % at 20 µM. 340,000 compounds, 0.49% hits. AID 493098;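 active means compounds whose inhibition of the agonist-driven luminescence signal at 20 µM reaches about 50%, limit read from the data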;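 further: cells stimulated with CCL20 at 14 nM final; plate controls were DMSO with CCL20 for no effect and DMSO without agonist for full effect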
Target sequence (P51684 whole entry, looked up): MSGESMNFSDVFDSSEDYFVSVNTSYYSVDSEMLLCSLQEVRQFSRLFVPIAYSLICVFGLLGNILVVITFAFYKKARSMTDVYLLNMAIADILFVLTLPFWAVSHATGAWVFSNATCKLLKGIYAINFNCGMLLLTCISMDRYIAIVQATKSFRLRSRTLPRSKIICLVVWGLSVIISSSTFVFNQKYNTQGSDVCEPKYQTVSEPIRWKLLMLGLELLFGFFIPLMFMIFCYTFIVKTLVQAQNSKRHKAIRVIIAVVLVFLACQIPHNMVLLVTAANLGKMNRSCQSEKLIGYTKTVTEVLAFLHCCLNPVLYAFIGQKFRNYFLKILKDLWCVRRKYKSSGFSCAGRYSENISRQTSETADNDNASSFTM
EBI2 antag – EBI2 (human) antagonism. P32249. EBI2 beta-arrestin recruitment, luminescence, 7a,25-OHC stimulated. inhibition, % at 5 µM. 360,000 compounds, 0.81% hits. AID 651636; in the data active means inhibition above about 38%;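 further: enzyme fragment complementation signal reports receptor beta-arrestin coupling in cells; 0% = agonist plus DMSO wells and 100% = wells without agonist; some results beyond the cut were filed as inactive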
Target sequence (P32249 whole entry, looked up, the tested form may be a part): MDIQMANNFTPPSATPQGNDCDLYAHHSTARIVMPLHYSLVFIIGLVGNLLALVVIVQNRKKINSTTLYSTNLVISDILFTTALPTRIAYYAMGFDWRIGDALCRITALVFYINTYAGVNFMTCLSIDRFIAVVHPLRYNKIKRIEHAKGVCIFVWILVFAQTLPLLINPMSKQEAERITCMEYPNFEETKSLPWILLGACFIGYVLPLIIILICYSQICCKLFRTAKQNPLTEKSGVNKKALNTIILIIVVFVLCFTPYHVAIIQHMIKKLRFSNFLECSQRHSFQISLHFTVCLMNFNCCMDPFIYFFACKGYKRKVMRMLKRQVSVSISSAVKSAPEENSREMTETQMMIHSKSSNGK
Numbers without * were called inactive; u = inconclusive; x = no result given. These rows are one share of the data, so the mix of outcomes need not match the whole.

SMILES | UBC13 inh | 697 NFkB inh | Gli-Sufu antag | Apaf1 inhib | Jurkat NFkB inh | CCR6 antag | EBI2 antag
CCCOc1ccc(-c2cn3ccccc3n2)cc1 | 17 | -159 | -92 | -2 | -140 | 9 | 9
CN=C1S/C(=C\c2ccc(O)c(OC)c2)C(=O)N1C | -4 | -47 | -25 | -5 | -12 | 12 | 8
COc1nccnc1NS(=O)(=O)c1ccc(NC(=S)NC(=O)c2ccc(F)c(F)c2)cc1 | u | 15 | -2 | 4 | 7 | 27 | 0
COC(=O)c1ccc(/C=N/NC(=O)c2cccc(F)c2)cc1 | 2 | -83 | -64 | -23 | -85 | 4 | -4
O=C(Nc1ccc(-c2nc3ccccc3s2)cc1)C1=COCCO1 | 14 | -300 | 44 | -15 | -61 | -1 | 22
O=C(COC(=O)c1cccnc1Cl)c1ccc2c(c1)OCCO2 | 18 | 9 | -12 | -10 | 5 | -3 | 0
CCc1ccc(OCC(=O)N2CCc3ccccc32)cc1 | -2 | -76 | -49 | 14 | -70 | 9 | 18
O=C(CCc1ccccc1)Nc1ccccc1F | 0 | 2 | -47 | -2 | -85 | 9 | -3
COc1ccc(-c2noc(-c3ccccc3Cl)n2)cc1OC | 13 | -111 | -96 | 7 | -123 | 6 | 12
O=C(Nc1ccc(NC(=O)c2ccccc2F)cc1)c1cccs1 | -2 | -23 | -59 | -1 | -90 | 4 | 0
Cc1ccnc(N(C(=O)c2cccs2)C(=O)c2cccs2)c1 | -8 | -122 | -59 | 9 | -63 | 7 | -1
COc1ccc(NC(=O)c2ccc([N+](=O)[O-])o2)cc1 | -14 | 18 | 0 | 11 | 4 | -14 | -6
Cc1cccc(C(=O)OCC(=O)c2ccc3c(c2)OCCO3)c1O | 25 | -26 | -51 | -3 | -123 | 5 | 10
Fc1ccccc1-c1cc2ccccc2cn1 | -14 | -85 | -96 | 20 | -105 | 11 | 5
COc1ccc(C(=O)Nc2ccc3ccccc3c2)cc1OC | 6 | -104 | -45 | -3 | -108 | 3 | 17
Cc1ccc(OC(=O)COc2ccccc2)c(-n2nc3ccccc3n2)c1 | 10 | -61 | -29 | 9 | -88 | 11 | 9
O=C(Nc1ccccc1)Nc1ccc(Nc2ccccc2)cc1 | 6 | -31 | -16 | -3 | -55 | 11 | -1
COc1cc(/C=C/c2nc3ccccc3c(=O)[nH]2)cc(Cl)c1O | -3 | 7 | 4 | 4 | -13 | -2 | -5
Cc1ccc(OC(=O)c2cccc(S(=O)(=O)N3CCCC3)c2)c(-n2nc3ccccc3n2)c1 | 7 | -82 | -32 | -3 | -97 | 14 | 16
COc1cc(OC)cc(-c2cc3ccc(F)cc3cn2)c1 | -8 | -108 | -100 | 17 | 4 | 12 | 0
CC(=O)NCCc1ccc(C(=O)COC(=O)C2CCCCC2)cc1 | -13 | -7 | 0 | 1 | -27 | 6 | -11
COC(=O)c1sccc1NC(=O)COc1ccccc1Cl | -5 | -55 | -11 | 12 | -27 | -4 | 7
O=C(CCC1CCCCC1)Nc1ccccc1O | -12 | -72 | -11 | 24 | -84 | -12 | -8
O=C(Nc1ccc(NC(=O)c2cccs2)cc1Cl)c1ccco1 | 5 | 2 | -39 | 2 | -27 | 2 | -11
COc1cccc(C(=O)Nc2ccc(C(=O)O)cc2)c1 | 4 | 25 | 1 | -4 | -4 | 3 | -6
CCCOc1ccc(C(=O)Nc2ccccc2[N+](=O)[O-])cc1 | 4 | -71 | -58 | 8 | -79 | 6 | 13
Fc1ccc2cnc(-c3ccccc3F)cc2c1 | 1 | -93 | -16 | 18 | -64 | 14 | -7
CCOc1ccc(OCCN2C(=O)c3ccccc3C2=O)cc1 | 14 | -51 | -44 | 3 | 4 | 12 | -2
O=C(Nc1ccc(Cl)cc1)c1cccc(S(=O)(=O)Nc2ccccn2)c1 | -7 | 10 | 8 | 7 | 7 | 9 | 3
COc1ccc(-c2nc(-c3ccccc3)no2)c(OC)c1 | -1 | -265 | 35 | -2 | -31 | -2 | 3

Part of the list above in order of count of non-hydrogen atoms, largest number first:
SMILES | UBC13 inh | 697 NFkB inh | Gli-Sufu antag | Apaf1 inhib | Jurkat NFkB inh | CCR6 antag | EBI2 antag
O=C(Nc1ccc(Cl)cc1)c1cccc(S(=O)(=O)Nc2ccccn2)c1 | -7 | 10 | 8 | 7 | 7 | 9 | 3
O=C(Nc1ccc(NC(=O)c2cccs2)cc1Cl)c1ccco1 | 5 | 2 | -39 | 2 | -27 | 2 | -11
COc1ccc(-c2nc(-c3ccccc3)no2)c(OC)c1 | -1 | -265 | 35 | -2 | -31 | -2 | 3

(further entries)
SMILES | UBC13 inh | 697 NFkB inh | Gli-Sufu antag | Apaf1 inhib | Jurkat NFkB inh | CCR6 antag | EBI2 antag
Fc1ccc2cc(-c3ccccc3)ncc2c1 | -4 | -95 | -45 | 10 | 15 | 3 | 2
CCN1C(=O)c2ccc(C(=O)Nc3cccc(C(=O)O)c3)cc2C1=O | -1 | -1 | 5 | -1 | 7 | 6 | -3
c1ccn2cc(-c3ccc4c(c3)OCCO4)nc2c1 | 10 | -91 | -54 | -5 | -88 | 2 | -7
COC(=O)c1sccc1NC(=O)Nc1cccc(Cl)c1Cl | 9 | 5 | -4 | 9 | -8 | 13 | 3
CCOCC(=O)Nc1cc(C(=O)Nc2ccc(F)cc2)ccc1Cl | 4 | -24 | x | -1 | -33 | x | x
CCCCOC(=O)c1ccc(NC(=O)c2ocnc2C)cc1 | 6 | -1 | -9 | -9 | -5 | 5 | -4
O=C(OCc1ccccn1)c1ccc(COc2ccccc2Cl)o1 | 8 | 4 | -2 | 2 | 4 | 14 | -1
COc1ccccc1NC(=O)Nc1ccc(F)c(F)c1 | 11 | 20 | -21 | 0 | -10 | -4 | 7
COc1ccc(C)cc1NC(=O)Nc1cccc(C)c1 | 7 | 10 | -6 | 1 | 5 | 8 | 0
COC(=O)c1sccc1NC(=O)Nc1cccc(C(C)=O)c1 | 3 | 17 | -3 | -7 | -7 | 19 | 5

Reprinted from the part before: two entries, followed by the next part.
SMILES | UBC13 inh | 697 NFkB inh | Gli-Sufu antag | Apaf1 inhib | Jurkat NFkB inh | CCR6 antag | EBI2 antag
COc1ccc(C)cc1NC(=O)Nc1cccc(C)c1 | 7 | 10 | -6 | 1 | 5 | 8 | 0
COC(=O)c1sccc1NC(=O)Nc1cccc(C(C)=O)c1 | 3 | 17 | -3 | -7 | -7 | 19 | 5
O=C(N/N=C/c1ccc(OC(=O)c2ccccc2)c([N+](=O)[O-])c1)c1ccc(O)cc1 | -20 | 6 | 1 | 13 | -7 | -28 | -29
COc1ccc(NC(=O)Nc2cc(C)ccc2OC)cc1 | 7 | 10 | -8 | 6 | -17 | 13 | 7
O=[N+]([O-])c1cccnc1NCCc1c[nH]c2ccccc12 | 1 | -103 | -64 | 4 | -83 | 12 | -5
CCn1nc(C)c(/C=N/NC(=O)c2ccoc2C)c1C | 0 | -33 | -38 | -4 | -61 | 0 | -8
O=C(COc1ccccc1)Nc1ccccc1F | -3 | 4 | 1 | 0 | -48 | -7 | -8
C1=C(c2cc3ccccc3cn2)CCCC1 | 15 | -147 | -78 | 8 | -133 | 5 | 17
O=C(Nc1cccc(Cl)c1)c1cc(-c2ccco2)on1 | 2 | 7 | -17 | 13 | -26 | 13 | 17
O=C(N/N=C/c1cc2c(cc1Br)OCO2)c1ccccn1 | 0 | -135 | -43 | -5 | -82 | 9 | -44
Cc1ccc(OC(=O)COc2ccccc2C)c(-n2nc3ccccc3n2)c1 | 0 | -59 | -36 | 6 | -90 | 15 | 7
Cc1occc1C(=O)Nc1nnc(C2CCCCC2)s1 | 4 | -37 | -30 | 12 | -45 | 12 | -1

Some entries already given, showing only Apaf1 inhib and 697 NFkB inh.
structure | Apaf1 inhib | 697 NFkB inh
CCn1nc(C)c(/C=N/NC(=O)c2ccoc2C)c1C | -4 | -33
O=C(COc1ccccc1)Nc1ccccc1F | 0 | 4
C1=C(c2cc3ccccc3cn2)CCCC1 | 8 | -147
O=C(Nc1cccc(Cl)c1)c1cc(-c2ccco2)on1 | 13 | 7
O=C(N/N=C/c1cc2c(cc1Br)OCO2)c1ccccn1 | -5 | -135
Cc1ccc(OC(=O)COc2ccccc2C)c(-n2nc3ccccc3n2)c1 | 6 | -59
Cc1occc1C(=O)Nc1nnc(C2CCCCC2)s1 | 12 | -37

(further entries)
SMILES | UBC13 inh | 697 NFkB inh | Gli-Sufu antag | Apaf1 inhib | Jurkat NFkB inh | CCR6 antag | EBI2 antag
Cc1cc(C)cc(NC(=O)C(=O)NCC2CCCN2S(=O)(=O)c2cccs2)c1 (centres undefined) | -3 | -20 | 1 | 19 | -8 | 12 | 8
COc1ccc(C)cc1NC(=O)COC(=O)c1c(C)nn(-c2ccccc2)c1C | -2 | 8 | 9 | 27 | -6 | 21 | -3
COc1ccccc1NC(=O)Nc1ccc2c(c1)OCCO2 | 8 | -65 | 18 | 1 | -52 | 0 | 4
O=C(Nc1ccccc1F)Nc1ccccc1Br | -4 | -61 | -30 | -6 | -25 | -5 | -6
COc1cccc(NC(=O)CSc2nc3ccccc3c(=O)n2CCCC(=O)NCC2CCCO2)c1 (centres undefined) | 11 | -16 | 6 | 8 | 11 | 7 | -11
Cc1ccc(OC(F)F)c(NC(=O)Nc2ccc3c(c2)OCO3)c1 | 5 | -4 | 5 | 2 | -6 | 4 | 7
O=C(Nc1nc2ccc(F)cc2s1)C1=COCCO1 | 0 | -250 | -73 | 9 | -100 | 3 | 6
COc1ccc(NC(=O)c2cccc(F)c2)cc1Cl | 5 | -44 | -55 | 6 | -79 | 5 | 6
O=C(Nc1ccc(-c2cn3c(n2)SCC3)cc1)c1ccc2c(c1)OCO2 | 1 | -5 | 10 | -10 | -5 | 14 | -8
N/C(=N\OC(=O)c1cccs1)c1cccc(Br)c1 | 11 | -51 | -8 | -19 | -68 | -23 | -1
O=C(COc1ccccc1)Nc1ccccc1N1CCN(c2ccccc2)CC1 | 1 | -13 | 11 | -4 | 1 | 0 | 18
COc1ccc(-c2ccc(NC(=O)c3ccc(Br)o3)cc2)nn1 | 1 | -41 | -80 | -2 | -63 | -4 | -6
COc1ccc(NC(=O)c2cnc(SCC(=O)NCCc3ccccc3)n(C)c2=O)cc1 | 41 | -15 | 10 | 4 | 2 | 19 | 0
